HCMV NEC inh: inhibitors of HCMV UL50-UL53 interaction, biochemical, HTRF; HCMV UL50-UL53 nuclear egress complex (human cytomegalovirus); normalized percent inhibition; inhibition, % (test concentration not listed); hit rate 0.15% among 190,000;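 active = both replicates at 50% or more, plus weaker picks with an unusually low signal ratio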;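 also: stock transfer was 100 nL into about 20 µL; 0% = negative control wells and 100% = wells with untagged competitor protein; inactives centre near -12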
GIV Gai3 FP: inhibitors of GIV peptide binding to Galpha-i3, primary screen, biochemical, fluorescence polarization, FITC-GIV GBA peptide, rat Galphai3; AID 1224905, 2016; percent of control (FP), % (concentration not given with the values); 90 min; stronger effect = lower value; scaled: aluminum fluoride 0%, vehicle 100%; Guanine nucleotide-binding protein G(i) subunit alpha-3 (Rattus norvegicus), P08753; hit rate 0.42% among 210,000;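 active = replicate mean at 85% of control or lower, very high polarization wells dropped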;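 also: wells of about 15 µL received 100 nL stock; the first replicate is given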
Target sequence (P08753 whole entry, looked up): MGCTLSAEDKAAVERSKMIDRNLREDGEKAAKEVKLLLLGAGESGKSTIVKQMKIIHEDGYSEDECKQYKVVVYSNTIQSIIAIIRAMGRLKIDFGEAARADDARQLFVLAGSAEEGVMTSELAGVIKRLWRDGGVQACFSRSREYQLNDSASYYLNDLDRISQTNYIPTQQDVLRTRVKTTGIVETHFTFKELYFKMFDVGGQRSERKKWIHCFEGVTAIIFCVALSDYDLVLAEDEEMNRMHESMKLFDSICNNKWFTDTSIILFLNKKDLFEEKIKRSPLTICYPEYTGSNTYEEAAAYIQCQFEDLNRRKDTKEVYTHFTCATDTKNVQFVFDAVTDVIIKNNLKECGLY
Sa growth inh: S. aureus growth inhibition at 42 and 30 °C, primary screen, LtaS inhibitor project, RN4220, two temperatures; relative growth, % (test concentration not listed); hit rate 0.53% among 170,000; OD600, 20 h, 42 °C; stronger effect = lower value;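 active = growth at 42 °C up to 50% and 20 or more points under that at 30 °C, or under 10% at both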;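 also: 300 nL library stock went into each well; scaled to the means of positive and negative controls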
Sa growth inh second temp: recorded beside Sa growth inh, whose call it bears; relative growth, %; measured here: growth at 30 °C;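 optical density after 20 h as mean of two plates; 100% = untreated growth and lower means inhibition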
Starred values were filed as active, the others as inactive; i = inactive; · = no result given; & = joins results of further samples.

SMILES	HCMV NEC inh	GIV Gai3 FP	Sa growth inh	Sa growth inh second temp
CN(C)S(=O)(=O)c1ccc(N2CCCCC2)c(C(=O)Nc2ccc3c(c2)OCO3)c1	3	·	104	95
Cc1ccc(C)c(NC(=O)Cn2cccc2)c1	·	97	108	85
CCOC(=O)N1CCN(C(=O)c2ccc(CS(=O)Cc3ccc(C)cc3)o2)CC1 (configuration not stated)	-26	103	105	91
COc1ccccc1-c1cc(C(=O)N2CCOCC2)[nH]n1	-1	96	·	·
COc1ccc(CCN(C)Cn2c(=O)oc3ccccc32)cc1OC	-62	·	96	85
COC(=O)c1cc(/C=C/C(=O)O)oc1C	-53	·	96	96
Clc1ccc(-c2csc(NNC3=NCCCCC3)n2)cc1	-41	·	109	77
COc1ccccc1NC(=O)N1CC2CCCN2c2ccccc21 (configuration not stated)	-2	102	·	·
Cc1ccc(CNC(=O)CN(Cc2ccccc2)S(=O)(=O)c2ccccc2)cc1	·	107	81	76
O=C(Nc1ccc(F)cc1F)Nc1ccccc1C(=O)NCCN1CCNC1=O	-22	106	97	89
CC(=O)Nc1c(-c2ccccc2)c(C)nn1-c1ccc(C(=O)Nc2ccc(S(N)(=O)=O)cc2)cc1	-26	108	·	·
CC(=O)N1CCc2cc(S(=O)(=O)NC(Cc3ccccc3)C(=O)Nc3cc(C)ccc3C)ccc21 (configuration not stated)	-17	107	117	95
CCOc1ccc(NC(=O)c2cc3nc(-c4ccc(OC)cc4)cc(C(F)(F)F)n3n2)cc1	16	107	102	100
O=C(O)COc1c(Cl)cc(C=C2C(=O)NC(=S)NC2=O)cc1Cl	·	90	101	88
O=C1CS(=O)(=O)C(c2ccc(Oc3ccccc3)cc2)N1c1ccccc1 (configuration not stated)	-6	·	85	55
COc1ccc(NC(=O)CSc2ccc(N3CCN(c4cccc(C)c4)CC3)nn2)cc1Cl	-33	103	·	·
c1ccc(Cn2c3ccccc3n3ncnc23)cc1	4	·	72	87
CN(C)S(=O)(=O)c1ccc(SCC(=O)NC(=O)NC2CCCC2)nc1	-31	·	110	83
c1cc2c(s1)CCNC2C1CC1 (configuration not stated)	-2	107	140	90
CCN(CC)C(=O)C1=C(C)Nc2nc3ccccc3n2C1c1cccc(OC)c1 (configuration not stated)	20	96	102	95

Exported bar-delimited: 20 of the compounds above.
structure | HCMV NEC inh | GIV Gai3 FP | Sa growth inh | Sa growth inh second temp
CN(C)S(=O)(=O)c1ccc(N2CCCCC2)c(C(=O)Nc2ccc3c(c2)OCO3)c1 | 3 | · | 104 | 95
Cc1ccc(C)c(NC(=O)Cn2cccc2)c1 | · | 97 | 108 | 85
CCOC(=O)N1CCN(C(=O)c2ccc(CS(=O)Cc3ccc(C)cc3)o2)CC1 (configuration not stated) | -26 | 103 | 105 | 91
COc1ccccc1-c1cc(C(=O)N2CCOCC2)[nH]n1 | -1 | 96 | · | ·
COc1ccc(CCN(C)Cn2c(=O)oc3ccccc32)cc1OC | -62 | · | 96 | 85
COC(=O)c1cc(/C=C/C(=O)O)oc1C | -53 | · | 96 | 96
Clc1ccc(-c2csc(NNC3=NCCCCC3)n2)cc1 | -41 | · | 109 | 77
COc1ccccc1NC(=O)N1CC2CCCN2c2ccccc21 (configuration not stated) | -2 | 102 | · | ·
Cc1ccc(CNC(=O)CN(Cc2ccccc2)S(=O)(=O)c2ccccc2)cc1 | · | 107 | 81 | 76
O=C(Nc1ccc(F)cc1F)Nc1ccccc1C(=O)NCCN1CCNC1=O | -22 | 106 | 97 | 89
CC(=O)Nc1c(-c2ccccc2)c(C)nn1-c1ccc(C(=O)Nc2ccc(S(N)(=O)=O)cc2)cc1 | -26 | 108 | · | ·
CC(=O)N1CCc2cc(S(=O)(=O)NC(Cc3ccccc3)C(=O)Nc3cc(C)ccc3C)ccc21 (configuration not stated) | -17 | 107 | 117 | 95
CCOc1ccc(NC(=O)c2cc3nc(-c4ccc(OC)cc4)cc(C(F)(F)F)n3n2)cc1 | 16 | 107 | 102 | 100
O=C(O)COc1c(Cl)cc(C=C2C(=O)NC(=S)NC2=O)cc1Cl | · | 90 | 101 | 88
O=C1CS(=O)(=O)C(c2ccc(Oc3ccccc3)cc2)N1c1ccccc1 (configuration not stated) | -6 | · | 85 | 55
COc1ccc(NC(=O)CSc2ccc(N3CCN(c4cccc(C)c4)CC3)nn2)cc1Cl | -33 | 103 | · | ·
c1ccc(Cn2c3ccccc3n3ncnc23)cc1 | 4 | · | 72 | 87
CN(C)S(=O)(=O)c1ccc(SCC(=O)NC(=O)NC2CCCC2)nc1 | -31 | · | 110 | 83
c1cc2c(s1)CCNC2C1CC1 (configuration not stated) | -2 | 107 | 140 | 90
CCN(CC)C(=O)C1=C(C)Nc2nc3ccccc3n2C1c1cccc(OC)c1 (configuration not stated) | 20 | 96 | 102 | 95

(list continues)
SMILES	HCMV NEC inh	GIV Gai3 FP	Sa growth inh	Sa growth inh second temp
COc1cc(OC)cc(C(=O)OC2CCCCC2=O)c1 (configuration not stated)	-9	·	106	91
CC(C)(C)C(=O)N1CCCC(c2nc3c(nnn3Cc3ccc(C(C)(C)C)cc3)c(=O)[nH]2)C1 (configuration not stated)	8	101	84	66
CC1=C(C(=O)Nc2ccccc2C(=O)NCc2ccccn2)SCCO1	4&-9	107&101	87	93
CCOC(=O)c1cc(C(F)(F)F)[nH]n1	-2	105	100	103
Cn1nc(-c2ccccc2)cc1NC(=O)C1COc2ccccc2O1 (configuration not stated)	2	106	104	95
COc1cc2c(cc1NS(=O)(=O)c1cccc(C#N)c1)n(C)c(=O)n2C	·	106	62	74
CCN(CC)C(=N)/C(C#N)=N\Nc1ccc(C)cc1	-25	106	96	91
CCN(CC)S(=O)(=O)c1ccc2c(c1)N(CC(=O)N1CCN(c3cccc(OC)c3)CC1)C(=O)CO2	·	107	130	86
O=C(Nc1ccccc1I)c1ccccc1	-18	·	98	81
O=C(O)C1(NCc2ccccc2Cl)CCCCC1	-3	97	94	89
CC1CCN(CC2CCN(C(=O)NCc3ccccc3)CC2)CC1	·	97	105	90
NNc1c(O)c(C(=O)O)cc2ccccc12	-64	107	100	45
COc1ccc(C2=NN(C(=O)c3cccs3)C(c3ccc(OC)cc3)C2)cc1 (configuration not stated)	2	111	·	·
Cn1c(=O)c(C(=O)NC2CCN(Cc3ccccc3)CC2)nn(-c2ccc(Cl)cc2)c1=O	-79	100	·	·
O=C(NCC1CCCO1)c1ccc(N2CCSc3ncccc32)s1 (configuration not stated)	-75	105	100	78
CCc1cc2c(cc3c(=O)n(CC(=O)NC4CCCCC4)nc(CC)n32)s1	-30	103	111	102
Cn1c(=O)c(=O)n(C)c2cc(S(=O)(=O)Nc3ccc(Cl)c(C(F)(F)F)c3)ccc21	-25	103	103	92
COc1ccc(CCNC(=O)CSC2=Nc3ccccc3C3=NC(CCC(=O)NCc4ccccc4)C(=O)N23)cc1OC (configuration not stated)	·	102	110	90
O=C(c1nn2c(c1Cl)NC(c1cccs1)CC2C(F)(F)F)N1CCN(c2ccc(F)cc2)CC1 (configuration not stated)	-8	90	·	·
Cc1cc(CNCc2ccc(CN(C)C)cc2)c(C)n1CC(C)C	-33	·	82	87
Cc1cccc2cc3c(nc12)N(C(=O)C(C)(C)C)CC3	14	105	·	·
COc1ccc(NC(=O)c2c[nH]n3c(=O)cc(C4CCN(C(=O)OC(C)(C)C)CC4)nc23)cc1Cl	-4	97	101	93
CN1C(=O)N(C)C(O)C1O (configuration not stated)	15	101	99	97
Cc1cc(=O)n2ncnc2n1CC(=O)N/N=C/c1ccc(Cl)cc1	-17	110	100	94
Cc1ccc(S(=O)(=O)CCc2nnc(NC(=O)c3ccc(Br)cc3)s2)cc1C	-15	102	·	·
CC12CCC(=O)N1C(C(=O)OCc1cc(=O)n3cc(Br)ccc3n1)CS2 (configuration not stated)	-86	·	86	86
CC(C)OCCCNC(=O)C(=O)Nc1ccc2nc3n(c(=O)c2c1)CCCCC3	-22	102	93	82
O=C(COC(=O)CSc1n[nH]c(-c2ccccc2)n1)NC1CCCCC1	-5	·	92	99
O=C1CC(c2ccco2)CC2=C1C(c1ccco1)Nc1ccccc1N2 (configuration not stated)	-21	107	95	80
CCOC(=O)N1CCN(c2ccccc2OC)CC1	4	98	101	105
CCc1ccc(NC(=O)C2=CC(c3cccs3)=NS(=O)(=O)N2C)cc1	-18	105	111	89
O=C(NCCCN1CCN(C2CCCCC2)CC1)c1cc(=O)n2c(nc3ccccc32)s1	-33	96	·	·
COC(=O)C(NC(=O)c1cc(-c2ccccc2)nc2ccccc12)C(C)C (configuration not stated)	-16	·	131	84
Cc1nnc2c3ccccc3c(N3CCCCC3)nn12	-16&-23	100&103	94	87
CCOC(=O)c1cnc(SC)nc1N	·	98	91	89
O=C(NCC(c1ccco1)S(=O)(=O)c1cccs1)c1c(F)cccc1F (configuration not stated)	·	94	111	84
COc1ccc(N2Cc3cccc(C(=O)NCCc4cccc(C)c4)c3C2=O)cc1	·	106	92	87
CCOC(=O)c1cc2sccc2n1CC(=O)N1CCCC1	-6	105	111	98
O=C(N1CCCCC1)N1CCN(C(c2ccccc2)c2ccccc2)CC1	-4	94	46	41
O=C(On1c(-c2ccccc2)nc2ccccc2c1=O)c1cccc(C(F)(F)F)c1	-6	100	101	80

2 compounds picked at random from the list so far, as already listed:
SMILES	HCMV NEC inh	GIV Gai3 FP	Sa growth inh	Sa growth inh second temp
Cc1nnc2c3ccccc3c(N3CCCCC3)nn12	-16&-23	100&103	94	87
O=C(On1c(-c2ccccc2)nc2ccccc2c1=O)c1cccc(C(F)(F)F)c1	-6	100	101	80

The list continues.
SMILES	HCMV NEC inh	GIV Gai3 FP	Sa growth inh	Sa growth inh second temp
COc1ccccc1-c1c(C(F)(F)F)oc2cc(OCC(=O)OC(C)C)ccc2c1=O	-5	98	·	·
CCOC(=O)c1cc2c(ccn2C)n1Cc1ccccc1C#N	17	105	117	90
Cc1ccc2c(c1)/C(=N/OCC(=O)NCCc1ccccc1)C(=O)N2	-61	·	111	102
Cc1cc(C)n2nc(CN(C(=O)COc3ccccc3)c3ccccc3)nc2n1	13	102	·	·
COc1cccc(C(=O)NC(=O)c2oc3ccccc3c2C(N)=O)c1OC	-15	107	120	95
CCCNC(=O)c1ccccc1NC(=O)c1ccncc1	-36	98	106	99
O=c1ccc(N2CCN(S(=O)(=O)c3cccc4nsnc34)CC2)nn1-c1ccc(Cl)cc1	-38	102	·	·
O=C(Nc1ccc(Oc2ccccc2)cc1)C1CC1	-10	97	99	94
Cc1ccc(CNC(=O)CCNS(=O)(=O)c2ccc3c(c2)CCCC(=O)N3)cc1	·	103	98	90
COc1ccc(CC(=O)Nc2ccc(-c3n[nH]c(=S)s3)cc2)cc1	·	98	92	85
CCn1c(=O)c(SCC(=O)NCc2ccc(C)cc2)nc2ccccc21	-31	110	·	·
CCCN(CCC)C(=O)CSc1nc2ccccc2c(=O)n1Cc1ccco1	·	102	111	92
O=C(NCc1ccccc1)c1cc(=O)[nH]c(=O)[nH]1	-25	·	96	95
CC1(C)C(=O)Nc2ccccc2N1C(=O)COc1ccc2ccc(=O)oc2c1	-31	·	80	97
CC1=C(C(=O)Nc2ccccn2)C(c2ccc(O)cc2)n2ncnc2N1 (configuration not stated)	21	112	·	·
Cc1ccc2nc(NC(=O)CSc3ncnc4ccccc34)sc2c1	35	104	·	·
CCN1/C(=C2/SC(=S)N(C)C2=O)C=Cc2ccccc21	-9	105	94	88
CCc1ccc(C(=O)Nc2ccc(Br)cn2)cc1	·	100	103	85
C=CCN(CC=C)C(=O)CSc1nnc2c3ccccc3n(CC)c2n1	-70	·	102	85
CCc1cc2c(cc3c(=O)n(CC(=O)NC4CCC(C)CC4)nc(CC)n32)s1 (configuration not stated)	-4	104	103	79
O=C1/C(=C/C2CC=CCC2)SC(=S)N1CC1CCCO1 (configuration not stated)	·	100	111	88
CN(C)/C=C(\C#N)C(=O)NC1CCCCC1	-37	103	90	86
CC(C)(C)C(=O)C1C2C3COC(O3)C(=O)C2C2C=Cc3ccccc3N21 (configuration not stated)	i	100	129	95
Nc1c(C(=O)Nc2ccc3c(c2)OCCO3)nnn1Cc1ccc(Br)cc1F	-2	106	76	92
CCCN1CCN(C(=O)Cn2c(-c3cccs3)cc3ccccc32)CC1	·	103	117	99
COc1ccc(S(=O)(=O)N2CCC(c3ccncc3)CC2)cc1OC	·	101	115	104
COc1cc(C=NCc2ccccc2)ccc1O	·	100	106	83
O=C(Cc1c[nH]c2ccccc12)NCc1ccccc1	·	100	104	83
COc1ccccc1C1=NS(=O)(=O)N(C)C(C(=O)N(C)C2CCCCC2)=C1	-25	95	·	·
CN(Cc1ccccc1)c1ncnc2c1nnn2C	·	92&112	99	90
Nc1cc(=O)[nH]c(SCC(=O)Nc2cccc(C(F)(F)F)c2)n1	-7	·	78	86
c1ccc(-c2nnc(SCC3CCOCO3)n2-c2ccccc2)cc1 (configuration not stated)	10	·	103	96
COc1ccc2[nH]c(=O)c(CN(Cc3cccs3)S(=O)(=O)c3cccc4nsnc34)cc2c1	19	106	106	117
CC(=O)N(C(C)=O)n1c(C)nc2c(sc3nnc(-c4ccccc4)c(-c4ccccc4)c32)c1=O	-38	106	89	82
Nc1c(Cl)cc(Cl)cc1C(=O)OCC(=O)NC1CCCCC1	-39	·	121	94

From PubChem BioAssay
